# FGF22 binding: FGF22 (human) thermal shift binding; recombinant FGF22 thermal shift, SYPRO orange fluorescence; percent of sucrose octasulfate shift, DMSO zero; calls only at 9.99 µM; actives 1.5% (n = 340,000); AID 651658;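 active = melting point raised past a set limit in the mean and every replicate; three in four hits are not shown here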
# Target sequence (Q9HCT0 whole entry, looked up): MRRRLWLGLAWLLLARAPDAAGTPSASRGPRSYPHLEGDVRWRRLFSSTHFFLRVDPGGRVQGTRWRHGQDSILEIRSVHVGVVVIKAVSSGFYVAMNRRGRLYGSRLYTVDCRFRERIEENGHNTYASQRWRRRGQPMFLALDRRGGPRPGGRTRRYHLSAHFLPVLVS
# Ecoli growth: inhibitors of Escherichia coli growth; OD600, 23 h; active compounds read low; OD600 absorbance (no concentration beside the values); actives 0.21% (n = 330,000);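 active = OD600 absorbance below the run mean of sample wells minus 3.6 SD, in any replicate, cut at about 0.56 in these data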;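 note: stock transfer was 300 nL into about 60 µL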
# AF4-AF9 inh: inhibitors of human MLL-AF4/AF9 interaction. AlphaScreen, biotin-AF4 peptide binding to FLAG-AF9. P42568. AID 651704. actives 0.47% (n = 350,000). inhibition, % at 10 µM;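 active = every replicate reaching a set inhibition limit, whatever the replicate mean, cut at about 25% in these data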;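 note: 0% = plate neutral control median and 100% = total signal loss; the record names both 10 and 1 µM as test concentration; the first replicate is given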
# Target sequence (P42568 whole entry, looked up): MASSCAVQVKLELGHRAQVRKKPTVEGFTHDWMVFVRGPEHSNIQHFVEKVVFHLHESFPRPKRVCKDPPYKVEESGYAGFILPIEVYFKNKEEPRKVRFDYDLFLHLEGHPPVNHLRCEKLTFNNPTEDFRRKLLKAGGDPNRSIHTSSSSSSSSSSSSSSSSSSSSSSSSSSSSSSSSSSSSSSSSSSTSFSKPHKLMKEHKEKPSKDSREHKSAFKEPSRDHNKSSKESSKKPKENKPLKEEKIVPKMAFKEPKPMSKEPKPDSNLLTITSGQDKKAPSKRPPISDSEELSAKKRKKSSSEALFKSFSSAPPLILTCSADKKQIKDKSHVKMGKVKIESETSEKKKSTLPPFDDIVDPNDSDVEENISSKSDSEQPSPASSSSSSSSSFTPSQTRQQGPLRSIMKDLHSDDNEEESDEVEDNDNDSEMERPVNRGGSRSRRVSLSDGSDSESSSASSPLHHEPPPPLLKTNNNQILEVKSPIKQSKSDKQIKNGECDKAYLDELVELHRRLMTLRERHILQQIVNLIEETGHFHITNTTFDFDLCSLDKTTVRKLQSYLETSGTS
# T cruzi repl: blocks replication of Trypanosoma cruzi; T. cruzi beta-gal in NIH3T3, luminescence, 90 h; inhibition, % (concentration not given with the values); actives 1.4% (n = 300,000);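 active = mean inhibition across valid replicates above about 55%, limit read from the data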;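 note: signal also drops with host cell toxicity which is not excluded here; 0% = plate median of DMSO wells and 100% = zero luminescence signal; higher percent means less beta-gal luminescence so fewer parasites; stock transfer was 50 nL into about 50 µL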
# Beta cell apopt: blocks beta cell apoptosis; INS-1E cytokine-induced death, ATP luminescence, 48 h; percent of positive-control rescue, neutral wells zero; AID 435005; protection from apoptosis, % (test concentration not listed); actives 0.8% (n = 300,000);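 active = all replicates at 75% or more, or half of them and the mean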;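 note: 0% = cytokine-treated negative control wells and 100% = positive control rescue; higher means more ATP so stronger rescue from cytokine killing; wells of about 40 µL received 100 nL stock; the first replicate is given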
# Ecoli rRNA inh: inhibits bacterial ribosomal RNA function over humanized ribosomes | E. coli WT GFP vs humanized-ribosome RFP mutants, fluorescence, 24 h; active compounds read low; DMSO median 0, no signal -100 | GFP signal change (wild-type ribosome), % (concentration not given with the values) | actives 1.6% (n = 350,000);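 active = significant combined selectivity score with lowered wild-type GFP, culture density cut under 30%, mutant RFP and density less affected; inactive = any of these conditions unmet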; note: one replicate is shown; some compounds called inactive have numbers as strong as hits
# UCH37 DUB inh: blocks the human deubiquitinase UCH37; AID 588478; actives 0.33% (n = 330,000); purified proteasome/UCH37, Ub-AMC cleavage fluorescence; inhibition, % (no concentration beside the values); Q9Y5K5;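 active = mean of two replicates above 20%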;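 note: 0% = compound-free wells with enzyme and 100% = wells lacking proteasome; stock transfer was 100 nL into about 20 µL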
# Target sequence (Q9Y5K5 whole entry, looked up): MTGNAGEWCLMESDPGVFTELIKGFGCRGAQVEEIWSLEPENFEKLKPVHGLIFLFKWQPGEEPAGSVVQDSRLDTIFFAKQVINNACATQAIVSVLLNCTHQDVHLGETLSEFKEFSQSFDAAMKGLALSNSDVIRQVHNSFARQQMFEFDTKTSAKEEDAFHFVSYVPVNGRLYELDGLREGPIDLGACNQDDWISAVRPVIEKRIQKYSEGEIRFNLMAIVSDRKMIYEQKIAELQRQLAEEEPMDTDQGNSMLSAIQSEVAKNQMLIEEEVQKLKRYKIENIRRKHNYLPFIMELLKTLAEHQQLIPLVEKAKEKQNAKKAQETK
#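 system = Proteasome-associated human UCH37 deubiquitinase | amount = 0.15 nM proteasome as dispensed | medium = pH 7.4 Tris-HCl (50 mM) with ovalbumin, ATP-MgCl2, DTT | incubation = 30 min preincubation with enzyme, 25 min cleavage at room temperature | detection = AMC fluorescence 355/460 nm | read-out basis = percent inhibition | controls = no-proteasome and no-compound wells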
# A1 inh: inhibitors of the anti-apoptotic protein A1, read as caspase activation | AID 2462 | actives 0.066% (n = 330,000) | MEF A1-2A-BIM cells, Caspase-Glo 3/7 luminescence, 3 h; percent of clofoctol response, vehicle zero | caspase activation, % (no concentration beside the values);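 active = over half of replicate activation scores above 10%, or exactly half above 10 with the replicate mean above 10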;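 note: wells of about 30 µL received 50 nL stock; many hits fall short of the cut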
# Ecoli rRNA inh OD600: second read-out of Ecoli rRNA inh, no call of its own (marks repeat the call); OD600 change, %; measured here: OD600 growth;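 optical density of the mix in the first replicate; 0 = DMSO median and -100 = no signal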
# Ecoli rRNA inh RFP: second read-out of Ecoli rRNA inh, no call of its own (marks repeat the call); RFP signal change, %; measured here: RFP humanized mutant strains;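 first replicate; 0 = DMSO median and -100 = no signal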
# Numbers without * were called inactive; i = inactive; nt = not tested or not shown. The list is partial; count on the stated rates, not on these rows.
SMILES,FGF22 binding,Ecoli growth,AF4-AF9 inh,T cruzi repl,Beta cell apopt,Ecoli rRNA inh,Ecoli rRNA inh OD600,Ecoli rRNA inh RFP,UCH37 DUB inh,A1 inh
CC1CN=C(N(C(=O)Nc2ccccc2)c2ccc(F)cc2)S1 (centres undefined),i,0.72,0.0,10,nt,1,24,10,5.2,-0.2
CN(CC(=O)N1CCCCC1)S(=O)(=O)c1ccc(Cl)cc1,i,0.67,0.5,-13,-2,-2,-1,-8.0,1.8,-1.2
COc1ccc(Cl)cc1NC(=O)c1oc(C)nc1C,nt,0.74,nt,-19,-1,nt,nt,nt,0.8,-2.3
COc1ccc2oc(C(=O)N3CCN(C/C=C/c4ccccc4)CC3)c(C)c2c1,i,0.66,3.3,nt,-1,-44,-71,-7.1,-1.8,0.2
Cn1cc(Cl)c(C(=O)NNC(=S)NCc2ccco2)n1,i,0.69,-2.9,-11,-1,21,6,3.4,-1.7,0.6
CCOC(=O)C1CCCN(CC(O)COc2ccccc2C(C)=O)C1 (centres undefined),nt,0.7,nt,3,nt,nt,nt,nt,-1.1,0.5
Cc1[nH]n(-c2ccccc2)c(=O)c1C(C[N+](=O)[O-])c1ccc(Br)cc1 (centres undefined),nt,0.67,nt,-6,nt,nt,nt,nt,29*,2.0
CCC(Sc1ccc2nnc(-c3ccc(F)cc3)n2n1)C(=O)OC (centres undefined),i,0.75,1.4,17,-1,11,13,-3.8,-23,-0.4
Cn1cc(-c2ccno2)c(C(=O)O)n1,i,0.7,-1.9,-10,-6,8,7,-0.9,-0.8,0.2
O=C(Nc1ccc(F)cc1)Nc1cccnc1Cl,i,0.66,1.4,-4,11,1,6,-0.3,0.6,-5.5
CC(C)CCNC(=S)Nc1ccc([N+](=O)[O-])cc1,nt,0.57,nt,9,38,nt,nt,nt,4.8,0.1
COc1cc(OC)cc(C(=O)NC(C(=O)N2CCC2)C(C)C)c1 (centres undefined),i,0.67,3.3,nt,-3,8,11,-2.7,-0.3,-0.9
CC1CCCCN1CCNS(=O)(=O)c1ccc2c(c1)oc(=O)n2C (centres undefined),nt,0.68,nt,11,-4,nt,nt,nt,4.1,0.4
N/C(=N\OS(=O)(=O)c1ccc(Cl)cc1)c1ccccn1,i,0.63,-0.3,nt,nt,0,1,1.2,0.5,nt
Cc1nnsc1C(=O)NNc1ccc(C(C)C)cc1,i,0.66,-4.1,15,-2,12,-5,-0.2,4.8,-1.9
CC[C@]12C(=O)N(C)C[C@H]([C@@H]3C(=O)N(Cc4ccccc4)C(=O)[C@@H]31)N2C(=O)c1ccc(Br)cc1,i,nt,-7.1,nt,nt,-4,4,9.9,2.8,nt
Cc1cc2nc3n(c2cc1C)CCCN3,i,0.63,3.5,67*,1,4,0,-0.6,1.3,-0.6
CCN(C(=O)CSc1nc2cc(S(=O)(=O)N(CC)CC)ccc2o1)C1CCS(=O)(=O)C1 (centres undefined),i,0.69,-2.1,-10,0,6,8,-2.3,2.0,-0.5
O=C(Nc1cnccn1)c1ccc(F)cc1Cl,i,0.63,-17,8,4,4,7,1.5,-5.5,2.0
C#CC[N+]1(CC#Cc2ccccc2)CCOCC1,nt,0.75,nt,-5,-2,nt,nt,nt,-1.4,0.0
Cc1ccc(C(=O)NCCCNC(=O)c2ccccc2C)cn1,i,0.63,0.7,4,-4,-15,-20,3.8,2.2,-0.3
O=C(NC1CCCCC1)/C(=N\O)c1ccccn1,i,nt,2.5,4,-4,2,1,3.6,nt,0.1
COc1ccc(-c2nc(CS(=O)(=O)CC(=O)NCc3cccc(Br)c3)c(C)o2)cc1,i,0.74,2.1,-6,-2,-3,-1,2.9,2.7,0.7
CCOC(=O)c1c(C)nc2sc3c(=O)n(-c4ccc(C)cc4)cnc3c2c1-c1ccc(OC)cc1,nt,0.77,nt,-22,-7,nt,nt,nt,-5.3,0.5
CCCCSc1nc(C)[nH]c1[N+](=O)[O-],nt,0.64,nt,-9,-6,nt,nt,nt,6.3,nt
COc1ccc(CN(C)C(=O)c2ccc(Cl)c(S(=O)(=O)NCc3cccnc3)c2)cc1F,i,0.7,7.8,nt,-7,-4,-6,1.5,3.3,1.6
CC(=O)c1ccc(OCCCC(=O)OCc2nnc(-c3ccc(Cl)cc3)o2)cc1,nt,0.71,nt,-4,-6,nt,nt,nt,-2.7,0.2
Cc1ccc(C)c(S(=O)(=O)N2CCC(c3nc4c(nnn4Cc4ccc5c(c4)OCCO5)c(=O)[nH]3)CC2)c1,i,0.7,2.7,30,nt,-2,1,2.2,8.0,1.0
CCNC(=S)N/N=C/c1cccc(OCc2c(F)cccc2Cl)c1,i,nt,-5.4,59*,nt,-8,-15,-3.7,nt,0.2
C=CC[n+]1c(C)csc1Nc1ccc(C)cc1,i,0.68,17,-12,-1,4,9,0.2,4.8,1.2
Cc1[nH]c2ccccc2c1CCN(Cc1cccs1)C(=S)Nc1ccccc1,i,0.72,5.3,22,-6,-4,-4,6.5,3.4,-0.2
CCOc1ccc(S(=O)(=O)N2CCOCC2)cc1NC(=O)c1ccc(N2CCCC2=O)cc1,i,0.63,13,-2,7,4,3,-2.3,-0.4,1.4
O=C(C1CCN(S(=O)(=O)c2ccc(F)cc2)CC1)N1CCCC(C(F)(F)F)C1 (centres undefined),i,0.71,10,-15,1,6,11,2.8,2.8,0.2
FC(F)(F)c1cccc(Cn2c3[n+](c4ccc(C(F)(F)F)cc42)CCCCC3)c1,i,0.71,0.1,8,7,-36,-45,-4.1,4.6,0.8
CCOC(=O)C1=C(C)NC(C)=C(C(=O)OCC)C1C(=O)OCC(=O)N1CCCCC1C (centres undefined),i,0.65,-1.1,nt,2,3,1,-0.6,-27,0.0
Cc1cccc(Cc2cnc(NC(=O)CN3C(=O)/C(=C/c4ccccc4)SC3=S)s2)c1,nt,0.78,nt,0,3,nt,nt,nt,5.0,2.6
CCC(C)C(NC(=O)C1CCC(C)CC1)C(=O)NC(CCSC)C(=O)OC (centres undefined),nt,0.71,nt,-3,0,nt,nt,nt,1.5,0.7
O=C(Nc1ccccc1Cl)N1CCN(c2ccc3nnc(-c4ccccc4)n3n2)CC1,nt,0.7,nt,20,1,nt,nt,nt,2.9,0.5
CN(Cc1ccccc1)C(=O)CN(c1ccc(F)cc1)S(=O)(=O)c1ccc2c(c1)OCCO2,nt,0.7,nt,14,-9,nt,nt,nt,0.5,0.3
Cc1ccc(C)c(NC(=O)CSc2nnc(CCCCCNC(=O)OC(C)(C)C)o2)c1,nt,0.68,nt,-9,2,nt,nt,nt,3.9,0.1
CCCC(=O)NCCCc1nc2ccccc2n1C(C)C,i,0.62,3.7,3,-3,3,3,-9.2,0.1,1.0
COc1ccc(NC(=O)Cn2nnc(C(=O)Nc3ccc(F)c(Cl)c3)c2N)cc1OC,i,0.73,-5.3,6,nt,11,9,-0.7,0.5,-0.6
Cc1ccc(CN2C(=O)CCC2C(=O)N2CCN(c3ccc(F)cc3)CC2)cc1 (centres undefined),nt,0.75,nt,2,0,nt,nt,nt,-2.1,1.4
O=C(NCc1nnc(SCc2ccc(F)cc2)n1-c1ccccc1)C12CC3CC(CC(C3)C1)C2,i,0.67,-8.7,13,0,-56,-75,-22,1.7,-0.7
CCc1ccccc1N(C(=O)c1snc(C(N)=O)c1N)C(C(=O)NCC1CCCO1)c1ccc(N(C)C)cc1 (centres undefined),i,0.68,1.8,10,nt,2,15,0.2,-3.3,nt
O=C(N=C1SC2CS(=O)(=O)CC2N1c1ccc(F)c(Cl)c1)C1CCCO1 (centres undefined),i,0.67,-9.4,-7,3,-2,1,-4.9,2.9,-0.2
Cc1ccc(N2C(=O)N(c3ccc(C)cc3)C3CS(=O)(=O)CC32)cc1 (centres undefined),i,0.69,-4.5,-4,-5,1,2,-0.6,1.5,1.2
CCOC(=O)c1c(NC(=O)CSc2ncnc3ccccc23)sc(C(C)=O)c1C,i,0.72,-2.5,-3,-5,8,4,2.2,3.6,0.0
Cc1cccc(NC(=O)CN2CCN(C(=O)c3cncn3-c3ccc(F)cc3)CC2)c1C,i,0.7,1.1,nt,0,-1,-1,-1.8,3.2,-0.9
Cc1[nH]c(=O)[nH]c(=O)c1S(=O)(=O)N1CCCC(C(=O)NCCC2=CCCCC2)C1 (centres undefined),i,0.67,-0.4,1,-2,9,12,-1.7,0.3,-1.2
Cc1c2cnn(CC(=O)O)c(=O)c2c(C)n1Cc1ccccc1,i,0.73,-7.1,-17,-1,-5,10,-4.0,3.7,0.3
COC(=O)[C@@]12CCCCN1[C@H](c1ccc(-c3ccc(OC)cc3)cc1)[C@H]1C(=O)N(C)C(=O)[C@H]12,i,nt,0.8,-30,8,6,7,0.6,3.1,0.7
COc1ccc(N(CC(=O)Nc2ccc(Cl)cc2)S(=O)(=O)c2c(C)n[nH]c2C)cc1,i,nt,-0.3,5,-1,-38,-50,-9.2,nt,-0.8
O=P(c1ccccc1)(c1ccccc1)C1CCCO1 (centres undefined),nt,0.66,nt,3,-7,nt,nt,nt,5.8,0.3
CCC(=O)c1ccc(OCC(O)CN2CCc3ccccc3C2)cc1 (centres undefined),i,0.68,-15,16,0,3,0,-0.9,2.5,-0.6
C=C(C)CC(NCCc1ccccc1)c1ccco1 (centres undefined),i,0.71,0.8,1,nt,13,2,-2.2,5.5,nt
COc1cccc(-c2csc(N3CCN(C(=S)Nc4ccccc4)CC3)n2)c1,nt,0.74,nt,6,-2,nt,nt,nt,4.4,0.0
Cc1ccc(-c2cc(C(=O)N3CCOCC3)c3ccccc3n2)cc1,nt,0.74,nt,4,1,nt,nt,nt,-35,-0.6
CC(=O)N(C)c1ccc(N=NC2C(=O)N(C(N)=S)N=C2C)cc1 (centres undefined),i,0.69,0.8,-25,1,-1,6,0.7,17,-7.7
Cc1ccc2c(Cl)c(C)c(N3CCCCC3)nc2n1,nt,0.66,nt,11,-2,nt,nt,nt,2.0,0.4

# Continued.
SMILES,FGF22 binding,Ecoli growth,AF4-AF9 inh,T cruzi repl,Beta cell apopt,Ecoli rRNA inh,Ecoli rRNA inh OD600,Ecoli rRNA inh RFP,UCH37 DUB inh,A1 inh
C/C(=N\NC(=O)c1ccc2c(c1)OCCO2)c1ccccc1,i,nt,-2.7,-8,-2,2,8,-2.4,nt,-7.5
O=C1NC(c2ccccc2O)Nc2ccccc21 (centres undefined),i,0.6,-5.4,-6,4,2,-1,-1.7,-435,-2.1
O=C(CCNC(=O)OCc1ccccc1)NC1CCCCC1,nt,0.7,nt,2,-4,nt,nt,nt,0.3,-0.1
Cc1ccc(C(C)NC(=S)NC2CCCCC2)c(C)c1 (centres undefined),i,0.7,-0.6,3,7,-29,-38,-4.7,4.5,0.1

# 2 records drawn at random from the list so far, as already listed:
SMILES,FGF22 binding,Ecoli growth,AF4-AF9 inh,T cruzi repl,Beta cell apopt,Ecoli rRNA inh,Ecoli rRNA inh OD600,Ecoli rRNA inh RFP,UCH37 DUB inh,A1 inh
Cc1ccc(C(C)NC(=S)NC2CCCCC2)c(C)c1 (centres undefined),i,0.7,-0.6,3,7,-29,-38,-4.7,4.5,0.1
O=C1NC(c2ccccc2O)Nc2ccccc21 (centres undefined),i,0.6,-5.4,-6,4,2,-1,-1.7,-435,-2.1
